Compound activity from PubChem BioAssay.
YopH PTP inh – blocks Yersinia enterocolitica YopH tyrosine phosphatase; 140,000 compounds, 0.16% hits; fluorescence Ex485/Em525; inhibition, %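 (about 10 µM by stock and volumes)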;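 active means inhibition of 50% or more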;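 further: controls were vehicle for no effect and minimum signal wells for full effect; inactives centre near -20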
Mtb bLac sens – beta-lactam sensitization of Mtb H37Rv | M. tuberculosis H37Rv growth with meropenem, percent inhibition; hits of this screen are not shown here | inhibition, % at 25 µM | 330,000 compounds, 0.27% hits | AID 434955;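 active means about 74% or more and at least 40 points above the plate without the antibiotic, then above 30% in a dose series; inconclusive means first-round hits that could not be retested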;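 further: growth measured after seven days incubation then overnight dye step; 0% = bacteria only wells and 100% = bacteria with antibiotic; twin plates without the antibiotic show which effects depend on it; some results filed as inactive read as strong as hits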
RecA intein inh – blocks M. tuberculosis RecA intein splicing; P9WHJ3; cell-free RecA intein splicing, fluorescence; inhibition, %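 (about 9 µM by stock and volumes)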; 290,000 compounds, 0.75% hits; in the data active means inhibition above about 30%; inconclusive means no clear call, values can overlap the other calls;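 further: 0% = vehicle wells and 100% = reference inhibitor control wells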
Target sequence (P9WHJ3 whole entry, looked up): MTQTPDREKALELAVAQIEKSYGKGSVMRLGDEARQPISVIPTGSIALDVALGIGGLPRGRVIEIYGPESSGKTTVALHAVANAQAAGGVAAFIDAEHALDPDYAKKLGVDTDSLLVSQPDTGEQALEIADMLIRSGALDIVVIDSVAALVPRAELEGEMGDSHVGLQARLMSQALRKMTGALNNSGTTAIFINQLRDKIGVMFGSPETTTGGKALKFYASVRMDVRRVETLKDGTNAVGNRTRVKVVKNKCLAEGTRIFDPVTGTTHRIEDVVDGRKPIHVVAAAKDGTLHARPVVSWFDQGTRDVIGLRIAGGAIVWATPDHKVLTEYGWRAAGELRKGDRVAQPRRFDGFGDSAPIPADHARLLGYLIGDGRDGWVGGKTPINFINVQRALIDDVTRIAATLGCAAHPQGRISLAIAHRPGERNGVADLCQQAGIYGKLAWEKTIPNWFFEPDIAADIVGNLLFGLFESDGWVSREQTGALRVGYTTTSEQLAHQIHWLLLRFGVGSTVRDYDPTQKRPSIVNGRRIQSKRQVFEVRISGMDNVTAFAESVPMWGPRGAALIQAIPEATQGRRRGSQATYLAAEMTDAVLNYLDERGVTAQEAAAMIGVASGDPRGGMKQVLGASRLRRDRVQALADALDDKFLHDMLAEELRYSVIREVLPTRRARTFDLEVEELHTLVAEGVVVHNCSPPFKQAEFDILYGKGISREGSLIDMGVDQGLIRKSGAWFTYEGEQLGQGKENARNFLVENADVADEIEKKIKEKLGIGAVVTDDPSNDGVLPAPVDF
Arbovirus anti – blocks arbovirus infection; arbovirus infection cell-based antiviral screen; inhibition, % at 10 µM; 200,000 compounds, 0.37% hits; AID 1251;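 active means inhibition from about 30%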;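 further: bluetongue infection of BSR cells; cell survival read as ATP light after 72 h; 0% = infected wells without compound and 100% = uninfected wells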
Mtb H37Rv – M. tuberculosis H37Rv growth inhibitors, H37Rv strain (AID 1626); 220,000 compounds, 0.95% hits; one-dose inhibition, % at 10 µM; IC50 in µM for titrated hits; M. tuberculosis H37Rv growth inhibition; higher % means a stronger effect;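 active means confirmed in a dose series; inconclusive means inhibition above 80% but not taken into the dose series; inactive means below 80% or under 30% at every dose of the series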;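 further: bacteria incubated seven days before Alamar blue readout; 0% = bacteria only wells and 100% = bacteria with antibiotic wells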
Arbovirus anti repeat – further read-out of Arbovirus anti, marked with its call; inhibition, %; measured here: 10K subset replicate screen; many hits read low in the repeat;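 first of two repeat runs on a subset; 0% = infected and 100% = uninfected wells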
* hit, by the source's call; ? = inconclusive; nt = not tested or not shown; & = joins results of further samples. Only part of the results is shown; the hit share may differ from the screen's.

SMILES	YopH PTP inh	Mtb bLac sens	RecA intein inh	Arbovirus anti	Mtb H37Rv	others
CCOC(=O)NC(NCCc1ccccc1)(C(F)(F)F)C(F)(F)F	-12	13	0.8	-3	6%
Cc1cccc(Cc2c(C)nc3c(C(=O)NCc4ccco4)cnn3c2C)c1	-50	nt	-1.7	6	78%
Cc1c(NC(=S)N/C(=N/S(=O)(=O)c2ccc(Cl)cc2)c2ccccc2)c(=O)n(-c2ccccc2)n1C	nt	-1	-2.9	nt	4%
CCNC(=O)c1ccc(=O)n(Cc2ccc(Cl)cc2Cl)c1	nt	-13	-2.2	nt	nt
COc1ccc(OC)c(NC(=O)CC2SC(=Nc3ccc(F)cc3)N(CCC3=CCCCC3)C2=O)c1 (centres undefined)	1	6	2.4	5	21%
CCN(C(=O)COC(=O)CCc1ccccc1OC)c1c(N)n(Cc2ccccc2)c(=O)[nH]c1=O	nt	-8	-3.7	nt	nt
COc1ccc(C(=O)NCC(=O)N2CCCC(C(F)(F)F)C2)cc1OC (centres undefined)	nt	0	0.4	nt	nt
CCc1nnc(NC=C2C(=O)OC(C)(C)OC2=O)s1	-32	9	-0.3	5	-12%
CCn1cc(C(=O)N(C)c2ccccc2F)c2cc(OC)c(OC)cc2c1=O	nt	7	-1.1	nt	nt
COc1ccc(OC2CCN(C(=O)Nc3ccc(C)cc3)CC2)cc1	nt	3	2.9	nt	nt
Clc1ccc(CSc2nnc(-c3cccnc3)o2)cc1	17	4	0.8	-20	8%
C/C(=N/NC(=O)c1cc(Cl)ccc1O)C12CC3CC(CC(C3)C1)C2	-18	3	1.8	13	1%
CCCCN(CC)CCNC(=O)Cn1cc2c(n1)-c1c(oc(C(=O)N3CCCC3)c1C)CC2	nt	-9	3.5	nt	nt
CCCCCCN1CC(=O)N2[C@@H](Cc3c([nH]c4ccccc34)C2(C)C)C1=O	nt	-3	1.8	nt	nt
O=C(Oc1cc(=O)oc2ccccc12)c1ccccc1	nt	3	-2.8	2	0%

The final 2 entries of the section above open the next one.
SMILES	YopH PTP inh	Mtb bLac sens	RecA intein inh	Arbovirus anti	Mtb H37Rv	others
CCCCCCN1CC(=O)N2[C@@H](Cc3c([nH]c4ccccc34)C2(C)C)C1=O	nt	-3	1.8	nt	nt
O=C(Oc1cc(=O)oc2ccccc12)c1ccccc1	nt	3	-2.8	2	0%
CC(=O)/C(C(=N)N1CCN(c2cccc(Cl)c2)CC1)=C(\C)O	-22	-2	1.3	2	2%
CC(CNC(=O)c1cc(COc2ccc3ncccc3c2)on1)c1ccccc1 (centres undefined)	nt	10	1.8	nt	nt
O=C(NCc1ccc(F)cc1)C(=O)c1cn(CC(=O)N2CCCC2)c2ccccc12	nt	7	1.6	nt	nt
Cc1cccc(OCCCN2C(=O)C(=O)c3cc(C)ccc32)c1	nt	1	3.8	-12	-6%
O=C(NCC(c1ccco1)N1CCOCC1)c1ccc(F)cc1 (centres undefined)	nt	-9	3.9	nt	nt
CC(C)Cn1c(N)c(C(=O)COC(=O)/C=C/c2cccs2)c(=O)n(C)c1=O	nt	0	-0.1	nt	nt
CCCCn1cnc2c1c(=O)[nH]c(=O)n2CCCC	4	2	0.4	-4	-2%
Cc1ccccc1N/C=C/C(=C(C#N)C#N)N(C)C	-5	-1	-4.4	7	2%
CN1C(=O)C(C)(C)c2cc(S(=O)(=O)N3CCN(c4ccc(F)cc4)CC3)ccc21	nt	0	-2.8	nt	nt
CCOC(=O)N1CCC(NC(=O)CCC(=O)N2CCOc3ccccc32)CC1	-47	-3	-0.7	-1	1%
Cc1ccc(C)c(N2CCN(C(=O)C3CCCN(S(=O)(=O)c4cnc[nH]4)C3)CC2)c1 (centres undefined)	-30	-6	nt	1	-9%	Arbovirus anti repeat=9
O=C(O)c1cccc(S(=O)(=O)N2CCN(Cc3ccc4c(c3)OCO4)CC2)c1	nt	4	-1.7	nt	nt
CC1(C)CC(NC(=O)c2coc(=O)c(Br)c2)CC(C)(C)N1	-2	-9	-0.5	5	-5%
CC(=O)N1CCN(c2ccc(OC[C@H]3CO[C@](Cn4ccnc4)(c4ccc(Cl)cc4Cl)O3)cc2)CC1	-12	96	6.5	-10&-35	?
CC(C)(C)NC(=O)NCc1cccnc1	nt	-7	0.6	nt	1%
COc1ccc(NC(=O)CCC(=O)N/N=C/c2cn(C)nc2C)cc1	nt	-14	-8.8	nt	-2%
O=C(c1cc2ccccc2oc1=O)N1CCN(CCc2ccccc2)CC1	-23	-7	-17	1	-14%
CC(C)(C)NC(=O)CSc1nnc(-c2ccco2)n1Cc1ccco1	-14	-7	-3.7	-2	0%
Cc1ccc(-c2nc3n(n2)Cc2ccccc2-3)cc1	-28	38	nt	-5	6%
O=C(NNC(=S)Nc1ccccc1)c1ccc2ncccc2c1	nt	-1	-0.4	-4	4%
O=C(NC(=S)NCC1CCCO1)c1ccc([N+](=O)[O-])cc1 (centres undefined)	-29	-4	-0.7	9	-5%
O=C(NCCc1ccccc1)c1ccc(OCCOc2ccccc2)cc1	-23	1	-7.1	-28	-7%
O=C(NC(=O)c1cc(OCC(F)(F)F)ccc1OCC(F)(F)F)Nc1ccccc1	nt	-4	-2.0	nt	-2%
Cc1ccc2[nH]c(=O)c(C(c3nnnn3C3CCCC3)N(Cc3cccnc3)Cc3ccco3)cc2c1 (centres undefined)	-23	50	-2.2	-19	8%
CC(=O)c1ccc(NC(=O)c2ccc(N3C(=O)c4cccnc4C3=O)cc2)cc1	nt	-3	1.4	nt	nt
Cc1occc1-c1nnc(SCC(=O)Nc2ccccc2)n1Cc1ccccc1	-17	-4	5.9	-6	6%
CN(C)CCNc1oc(-c2cccc(Cl)c2)nc1C#N	-3	5	0.1	3	3%
O=S(=O)(NCCc1csc(-c2cccnc2)n1)c1cccc(F)c1	nt	5	-2.5	nt	nt
COC(c1ccccc1)c1nnc(CCC(=O)NCCc2ccc(Cl)cc2)o1 (centres undefined)	nt	-3	2.8	nt	nt
O=C(CNC(=O)/C(=C\c1ccccc1)NC(=O)c1ccc(Br)cc1)OCc1ccccc1	-9	100	9.2	-1	?
O=C1N(c2ccccc2)CCN1c1ccccc1	nt	3	-0.3	nt	nt
Brc1ccccc1OCCCN1CCCCCC1	nt	2	-1.1	-5	-1%
CCNC(=S)Nc1ccc(-c2nc3ccccc3[nH]2)cc1	nt	5	0.7	-5	-5%
O=C(N/N=C/c1sc(N2CCOCC2)nc1-c1ccccc1)c1ccc(O)cc1	nt	1	-16	2	7%
CC(C)Oc1ccc(C(=O)Nc2ncn[nH]2)cc1	nt	-7	-1.3	nt	nt
COc1cccc(-c2ccc(NC(=O)C3CCCN(Cc4ccco4)C3)cc2)c1 (centres undefined)	nt	94	2.3	nt	nt
CC(C)CN(C(=O)COC(=O)CNC(=O)c1ccccc1)c1c(N)n(Cc2ccccc2)c(=O)[nH]c1=O	nt	-6	-5.1	nt	nt
CCOc1ccc(S(=O)(=O)NC2CCCCCC2)cc1	nt	-1	-1.0	-4	-6%
O=C(COc1ccccc1)NCCSCc1ccccc1Cl	nt	-3	4.8	-4	-3%
O=C(CSc1ccccc1)NCc1ccc(F)cc1	nt	-2	-51	1	3%
COc1ccccc1NS(=O)(=O)c1cc(NC(=O)c2ccccc2F)ccc1N1CCOCC1	nt	58	nt	-6	6%
COc1cccc(CNC(=O)C2CCCN(S(=O)(=O)c3c(C)n[nH]c3C)C2)c1 (centres undefined)	-18	4	1.8	4	0%
CCOc1ccccc1-n1c(SCC(N)=O)nnc1-c1ccccc1	-5	-1	2.7	-4	-1%
CCc1cc2c3c([nH]c2cc1S(=O)(=O)NCCCOC)CC(C)(C)CC3=O	nt	-7	-2.2	nt	nt
Cc1nn2c(c1-c1ccc(Cl)cc1)N=C(c1ccco1)CC2c1ccccc1 (centres undefined)	-15	72	11	-11	15%

12 entries out of the list, sorted by SMILES length, ascending.
SMILES	YopH PTP inh	Mtb bLac sens	RecA intein inh	Arbovirus anti	Mtb H37Rv	others
CC(C)(C)NC(=O)NCc1cccnc1	nt	-7	0.6	nt	1%
O=C(COc1ccccc1)NCCSCc1ccccc1Cl	nt	-3	4.8	-4	-3%
Clc1ccc(CSc2nnc(-c3cccnc3)o2)cc1	17	4	0.8	-20	8%
CN(C)CCNc1oc(-c2cccc(Cl)c2)nc1C#N	-3	5	0.1	3	3%
CCOc1ccccc1-n1c(SCC(N)=O)nnc1-c1ccccc1	-5	-1	2.7	-4	-1%
CCOC(=O)NC(NCCc1ccccc1)(C(F)(F)F)C(F)(F)F	-12	13	0.8	-3	6%
COc1ccc(NC(=O)CCC(=O)N/N=C/c2cn(C)nc2C)cc1	nt	-14	-8.8	nt	-2%
CC(=O)/C(C(=N)N1CCN(c2cccc(Cl)c2)CC1)=C(\C)O	-22	-2	1.3	2	2%
CCOC(=O)N1CCC(NC(=O)CCC(=O)N2CCOc3ccccc32)CC1	-47	-3	-0.7	-1	1%
COc1ccccc1NS(=O)(=O)c1cc(NC(=O)c2ccccc2F)ccc1N1CCOCC1	nt	58	nt	-6	6%
CN1C(=O)C(C)(C)c2cc(S(=O)(=O)N3CCN(c4ccc(F)cc4)CC3)ccc21	nt	0	-2.8	nt	nt
CCN(C(=O)COC(=O)CCc1ccccc1OC)c1c(N)n(Cc2ccccc2)c(=O)[nH]c1=O	nt	-8	-3.7	nt	nt

Remaining list, next part:
SMILES	YopH PTP inh	Mtb bLac sens	RecA intein inh	Arbovirus anti	Mtb H37Rv	others
O=C(NCc1cccnc1)C(=O)NCC(c1ccco1)N1CCN(c2ccc(F)cc2)CC1 (centres undefined)	-10	-3	-2.5	11	0%
CCOCCCN(C(=O)c1snc(C(N)=O)c1N)C(C(=O)NC1CCCC1)c1ccc(OC)cc1 (centres undefined)	nt	6	-0.9	nt	nt
CCc1ccccc1NC(=O)N1CCc2ccccc2C1	nt	-4	2.2	nt	nt
N#Cc1ccc(C23CC4(C2)[C@H](CN(CC2CCCCC2)[C@@H]4c2ccccc2)C3c2ccccc2)cc1 (some centres undefined)	nt	4	11	nt	10%
O=C(Nc1ccccc1F)C1CCN(C(=O)Cc2ccccc2)CC1	1	-5	-0.2	3	-9%
CCCC(=O)Nc1nnc(SCC(=O)N2CCN(c3ccccc3)CC2)s1	nt	-1	-1.5	nt	3%
Nc1nnc(SCC(=O)N2CCN(c3ccccc3)CC2)n1-c1ccccc1	-18	2	-0.2	-6	-16%
COc1ccc(S(=O)(=O)NCc2csc(-c3cccnc3)n2)cc1	-42	-1	-1.5	7	3%
CCOC(=O)N1CCN(C(=O)c2ccc(Cl)c(S(=O)(=O)N3CCOCC3)c2)CC1	-10	-7	-1.7	8	2%
O=C(CSc1nc2ccc(Nc3nc(N4CCOCC4)nc(N4CCOCC4)n3)cc2s1)Nc1ccccc1Cl	nt	87	-1.5	nt	nt
Cc1ccc(N2CCN(C(=S)c3ccc(-c4cccc([N+](=O)[O-])c4)o3)CC2)cc1	nt	3	3.1	4	5%
Cc1cccc2cc3c(N)c(C(=O)N4CCc5ccccc54)sc3nc12	-13	10	-2.0	-12	2%
COc1ccccc1CC(=O)N(Cc1ccccc1)c1cccc(C)c1	nt	-5	14	nt	nt
O=C1CCCN1CC#CCN1CCCC1	nt	-1	1.9	nt	nt
O=C(Nc1ccccc1NC(=O)c1ccccc1F)c1ccccc1F	nt	-4	1.5	nt	nt
N#CCCn1cc(/C=N/O)c(-c2ccc(F)cc2)n1	-23	26	3.1	3	-10%
CCN(CC(=O)Nc1cccc(OC)c1)C(=O)c1ccc(C)s1	-27	-4	0.5	-5	-2%
CN1CCN(c2ccc(NC(=O)COc3ccc(Cl)cc3Cl)cc2)CC1	-35	-3	-2.4	-5	-2%
O=C(CNC(=O)c1cccc(F)c1)N/N=C/c1cc(Br)ccc1OC(=O)/C=C/c1ccco1	-20	nt	0.5	-22	-9%
Cc1nn(C)c(C)c1/C=C/C(=O)c1ccccc1	-14	68	1.6	9	-6%
CCOC(=O)C(C)(C)N(Cc1ccc(C)cc1)S(=O)(=O)c1ccc(Cl)c([N+](=O)[O-])c1	-27	-7	4.3	0	5%
O=C(Nc1ccc(-c2nc3ccccc3c(=O)o2)cc1)c1ccco1	-20	98	0.1	11	<0.2µM*
COc1ccc(S(=O)(=O)Cc2ccc(C(=O)N3CCN(c4ccccc4F)CC3)o2)cc1	nt	5	1.3	1	2%
CCOC(=O)N1CCN(C(=O)c2cccc(N3C(=O)NC4CC3(C)Oc3ccc(Cl)cc34)c2)CC1 (centres undefined)	nt	-1	-0.3	nt	nt
O=S1(=O)NC(=NCc2ccco2)c2ccccc21	21	-8	2.4	-3	-11%
Cc1ccc(OC(C)C(=O)N2CC(=O)Nc3ccccc32)cc1 (centres undefined)	nt	-1	0.5	nt	nt
C/C(=N\O)C(C)(C)Nc1cccc(Br)c1	nt	-8	-0.5	nt	5%
